Source: PubChem BioAssay
Mtb MenB inh: blocks the Mycobacterium tuberculosis MenB enzyme; AID 540299; MenB enzyme assay, absorbance read-out; some hits fall short of the stated cut; 100,000 compounds, 0.43% hits; P9WNP5; inhibition, %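 (about 12 µg/mL by stock and volumes)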;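 active = mean of two replicates above 30%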;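 also: 0% = no compound and 100% = wells with inactive enzyme; the first replicate is given; strong numbers were not always called active; inactives centre near -10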
Target sequence (P9WNP5 whole entry, looked up): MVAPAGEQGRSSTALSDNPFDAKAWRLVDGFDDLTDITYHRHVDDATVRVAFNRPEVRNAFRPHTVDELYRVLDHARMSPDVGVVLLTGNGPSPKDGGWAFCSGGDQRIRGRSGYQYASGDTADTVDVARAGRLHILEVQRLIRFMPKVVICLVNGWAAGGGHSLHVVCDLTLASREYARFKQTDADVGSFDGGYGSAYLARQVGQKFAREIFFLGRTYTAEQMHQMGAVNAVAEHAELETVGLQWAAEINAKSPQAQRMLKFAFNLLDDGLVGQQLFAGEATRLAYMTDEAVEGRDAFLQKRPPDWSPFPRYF
Polio RdRp inh: inhibitors of poliovirus RNA polymerase binding and polymerization; poliovirus polymerase elongation, fluorescence polarization; stronger effect = lower value; % elongation, % (compound at 16.7 µg/mL); 150,000 compounds, 0.66% hits; AID 588519; in the data active = % elongation below about 90%; also: some results filed as inactive read as strong as hits
Target sequence (P03300 1749-2209 limits assumed): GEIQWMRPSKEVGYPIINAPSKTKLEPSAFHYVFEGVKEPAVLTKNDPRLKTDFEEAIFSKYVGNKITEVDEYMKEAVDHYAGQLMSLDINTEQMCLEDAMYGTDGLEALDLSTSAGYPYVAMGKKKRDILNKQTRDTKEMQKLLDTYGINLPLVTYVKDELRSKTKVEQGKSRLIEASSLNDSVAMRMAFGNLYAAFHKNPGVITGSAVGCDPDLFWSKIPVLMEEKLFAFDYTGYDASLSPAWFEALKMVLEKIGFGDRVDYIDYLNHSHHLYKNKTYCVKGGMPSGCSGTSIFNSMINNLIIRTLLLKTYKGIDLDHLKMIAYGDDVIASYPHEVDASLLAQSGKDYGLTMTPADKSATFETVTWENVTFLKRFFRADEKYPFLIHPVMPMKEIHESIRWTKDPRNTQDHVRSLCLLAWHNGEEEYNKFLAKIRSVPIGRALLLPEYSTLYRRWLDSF
MbtI inh: blocks the Mycobacterium tuberculosis siderophore enzyme MbtI. purified MbtI enzyme, fluorescence intensity read-out. AID 493033. inhibition, %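 (about 17 µg/mL by stock and volumes)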. 100,000 compounds, 0.89% hits;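 active = above 50% in both replicates, above 80% if mildly self-fluorescent; inactive = the rest, strongly fluorescent compounds included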;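 also: 0% = mean of negative and 100% = mean of positive controls; one replicate is shown; some compounds called inactive have numbers as strong as hits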
Polio RdRp inh intensity: second read-out of Polio RdRp inh, no call of its own (marks repeat the call); % elongation; measured here: total intensity read-out; formula for this scale not given here;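 total fluorescence in place of polarization; lower means less elongation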
* hit, by the source's call; . = not tested or not shown.

Every second line gives: Mtb MenB inh	Polio RdRp inh	Polio RdRp inh intensity	MbtI inh
CCCN(Cc1nnc(-c2ccco2)o1)C(=O)CSc1nnc(-c2ccc(Cl)cc2)o1
    5	115	111	9
CC(=O)OCC(=O)c1ccc2c(c1)CCN2C(C)=O
    -18	103	106	19
CCCc1[nH]n(-c2ccc(F)cc2)c(=O)c1C(C)=Nc1ccc(S(N)(=O)=O)cc1
    -50	103	98	-1
COc1ccccc1C(=O)N=C1NC(=O)CC2C(=O)NCCN12 (stereo not given)
    -20	107	102	5
O=C(Nc1ccc(-c2nc3ccccc3o2)cc1)c1ccc(Oc2ccccc2)cc1
    -2	103	95	-19
COc1ccc(N=C2SCCCN2C)cc1
    25	100	104	-4
CNS(=O)(=O)c1ccc2c(c1)n(C)c(=O)n2C
    -28	102	99	-4
C=CCSc1nc2c(cnn2-c2ccc(Cl)cc2)c(=O)[nH]1
    -8	103	107	-2
CCN1C(=O)N/C(=C/c2ccc(OCc3ccc(C(=O)O)cc3)cc2)C1=O
    -2	102	105	0
Cc1ccc(NC(=O)/C=C2\NC(=O)CS2)cc1
    -3	103	96	12
Cc1cc(C)c(C)c(S(=O)(=O)N2CCN(c3ncnc4sc5c(c34)CCCC5)CC2)c1C
    -7	103	110	-13
CC(C)OCc1nc2ccccc2n1C
    2	100	101	-1
Cc1c(C#N)sc2ccccc12
    -2	104	101	-1
COC(=O)C1=C(N)Oc2c(oc(CO)cc2=O)C1c1cccc(OC)c1 (stereo not given)
    0	103	105	-5
Cn1nc(C2CC2)cc1NC(=O)Nc1ccc(OC(F)(F)F)cc1
    -18	105	106	-3
Cc1cc(C)n2c(SC(C)C(=O)NC3(C#N)CCCCC3)nnc2n1 (stereo not given)
    -22	105	111	-9
CC1CC(C)CN(S(=O)(=O)c2ccc(NC(=O)C(C)N3C(=O)C4CC=CCC4C3=O)cc2)C1 (stereo not given)
    4	103	107	-6
COC(=O)C(C)Sc1nc2cc(Cl)ccc2s1 (stereo not given)
    -35	103	102	-4
Cc1cc(C(O)(C(F)(F)F)C(F)(F)F)cc(C)c1O
    -11	99	80	.
CCNc1nc(NC(N)=S)nc(NC(C)(C)C)n1
    -25	101	100	66

Molecules above with two or more sulfur atoms, in the order listed:
Every second line gives: Mtb MenB inh	Polio RdRp inh	Polio RdRp inh intensity	MbtI inh
Cc1cc(C)c(C)c(S(=O)(=O)N2CCN(c3ncnc4sc5c(c34)CCCC5)CC2)c1C
    -7	103	110	-13
COC(=O)C(C)Sc1nc2cc(Cl)ccc2s1 (stereo not given)
    -35	103	102	-4

Fetched one by one from the entries so far (two):
Every second line gives: Mtb MenB inh	Polio RdRp inh	Polio RdRp inh intensity	MbtI inh
CC1CC(C)CN(S(=O)(=O)c2ccc(NC(=O)C(C)N3C(=O)C4CC=CCC4C3=O)cc2)C1 (stereo not given)
    4	103	107	-6
COc1ccccc1C(=O)N=C1NC(=O)CC2C(=O)NCCN12 (stereo not given)
    -20	107	102	5

Next section:
Every second line gives: Mtb MenB inh	Polio RdRp inh	Polio RdRp inh intensity	MbtI inh
O=C(O)C1Sc2c(sc(=O)n2Cc2ccccc2)C2c3ccccc3OC(=O)C12 (stereo not given)
    -5	97	106	.
COC(=O)c1c(C)cc(=O)n2c1[nH]c1ccccc12
    .	100	103	92
O=C(c1ccccc1)N1CCCCC1
    -78	100	103	-8
CCC(C)c1ccc(NC(=O)NC(C)(C)C)cc1 (stereo not given)
    -42	102	101	-28
O=C(O)c1cc2ccc(O)cc2oc1=O
    -22	101	104	118
CCc1ccc(C(c2c(C)[nH][nH]c2=O)C(C#N)C#N)cc1 (stereo not given)
    -15	100	101	32
CCOC(=O)c1c(-c2ccccc2Cl)csc1NC(=O)CC
    .	100	101	24
CN(Cc1ccc(Cl)s1)C(=O)CSc1nnc2n1CCCCC2
    -6	105	110	-5
COc1cc(COC(=O)N[C@@H](Cc2c[nH]c3ccccc23)C(=O)O)cc(OC)c1
    -19	104	110	-13
Nc1ccc(S(=O)C(F)(F)F)cc1 (stereo not given)
    .	102	101	-2
CC1CCCCC1Nc1ncnc2c1oc1ccccc12 (stereo not given)
    -6	105	104	-23
CC1CCCCC1NC(=O)CN(C)S(=O)(=O)c1cccc2cccnc12 (stereo not given)
    10	100	104	4
O=C1/C(=C/c2ccc3c(c2)OCO3)COc2ccccc21
    -54	98	99	6
COc1cccc(C(=O)Nc2cccc(C)n2)c1
    0	93	99	.
CCn1c(SCC(=O)Nc2ccc3c(c2)OCO3)nc2ccc(Br)cc2c1=O
    -14	106	109	-4
CC(C)OC(=O)CSc1nnc(-c2cnccn2)n1-c1ccccc1
    3	101	103	-12
Cc1nc2c(c(-c3ccccc3)c1C#N)C(=O)c1ccccc1-2
    -19	103	103	-12
N#Cc1c(Nc2ccccc2)c(/C=N/N)c[nH]c1=O
    4	101	101	5
Cc1ccc2oc(=O)c3cnn(CC(=O)Nc4ccccc4N4CCN(C)CC4)c3c2c1
    -12	103	103	-7
O=C(O)COc1cc(Cl)ccc1O
    .	100	97	-11

Record cards, from the list above. Order of screens: Mtb MenB inh	Polio RdRp inh	Polio RdRp inh intensity	MbtI inh
CCOC(=O)c1c(-c2ccccc2Cl)csc1NC(=O)CC as listed: .	100	101	24
Cc1nc2c(c(-c3ccccc3)c1C#N)C(=O)c1ccccc1-2 as listed: -19	103	103	-12
CC1CCCCC1NC(=O)CN(C)S(=O)(=O)c1cccc2cccnc12 (stereo not given) as listed: 10	100	104	4

Next section:
Every second line gives: Mtb MenB inh	Polio RdRp inh	Polio RdRp inh intensity	MbtI inh
O=C(O)c1cc(NC(=O)C2CC2)cc(NC(=O)C2CC2)c1
    -21	104	102	-10
CCOC(=O)/C(C#N)=c1/s/c(=C2\C=Cc3ccccc3N2CC)c(=O)n1CC
    -15	104	107	.
COC(=O)c1ccc2c(c1)N=C(C)c1cc(C)ccc1S2
    -17	101	103	-6
Fc1ccc(C(c2nnnn2C2CCCC2)N2CCc3ccccc32)cc1 (stereo not given)
    -16	101	102	-2
N#CC(C(=O)c1cc(F)c(F)cc1Cl)c1ccccn1 (stereo not given)
    .	101	105	-6
Nc1n[nH]c(Cc2ccccc2)c1-c1ccccc1
    -12	100	102	-8
COc1ccc(OCC(O)CNC(=O)Nc2cc(F)ccc2C)cc1 (stereo not given)
    -16	102	102	11
CC1CCC(NC(=O)Cn2c3ccccc3c3cn[nH]c(=O)c32)CC1 (stereo not given)
    6	101	102	-34
Cc1csc(CC(N)=S)n1
    -56	102	110	98*
CN1CC(=O)N(CC(=O)c2ccc(Cl)s2)C1=O
    7	104	99	14
CC1(C)CC(NC(=O)c2cccc3ccccc23)CC(C)(C)N1
    -13	110	112	.
Cc1oc2c(c1C(=O)NCCCN1CCOCC1)C(=O)c1ccccc1C2=O
    -17	100	100	-2
CCC(=O)N1c2ccccc2N=C(c2ccccc2)CC1c1ccccc1 (stereo not given)
    -4	110	113	-2
CSC1=Nc2ccccc2CN1c1ccc(Br)cc1
    2	104	109	.
Cn1c(=O)c2cc(C(=O)NC3CC3)sc2c2ccccc21
    -37	101	97	5
Cn1ccsc1=NC(=O)Cn1cnc2ccccc2c1=O
    -10	98	106	12
O/N=C/c1cccc(Oc2ccccc2)c1
    -12	102	107	-5
CCCCN(Cc1cc2cc(OC)ccc2[nH]c1=O)C(=O)c1cccc(Cl)c1
    -15	103	107	-17
O=C(OCN1C(=O)c2ccccc2C1=O)c1cc[n+]([O-])cc1
    -10	101	106	-2
FC(F)(F)c1cccc(Cc2c[nH]c(=S)s2)c1
    -22	93	97	-1

Next compounds:
Screens by letter – A = Mtb MenB inh; B = Polio RdRp inh; C = Polio RdRp inh intensity; D = MbtI inh
N#CCC(=O)c1ccco1
  A: -34	B: 107	C: 111	D: -1
CC1CCCCC1NC(=O)CSC1=Nc2ccccc2C2CC=NN12 (stereo not given)
  A: -22	B: 103	C: 112	D: 19
CCOC(=O)CC1(O)CSc2nc3sc4c(c3c(=O)n21)CCCC4 (stereo not given)
  A: 17	B: 101	C: 102	D: 0
Cc1ccc(N(C(=O)c2ccc(Br)o2)C(=O)N2CCCCC2)cc1
  A: -12	B: .	C: .	D: 8
CCn1c(=O)cc(SCC(=O)NCCCN2CCN(C)CC2)c2ccccc21
  A: -2	B: 99	C: 102	D: 37
Cc1c(N)cccc1-n1c(C)ccc1C
  A: -6	B: 100	C: 103	D: -5
C=CCn1nc2n(c1=O)-c1ccccc1SC2
  A: 7	B: 107	C: 116	D: -1
O=C(CCN1C(=O)C2CC=CCC2C1=O)Nc1nnc(C2CC2)s1 (stereo not given)
  A: -22	B: 103	C: 93	D: 6
O=C1Cc2cc(C(=O)Cn3nc(C(=O)O)c4ccccc4c3=O)ccc2N1
  A: -6	B: 102	C: 95	D: 7
CCCCc1oc2ccccc2c1CNC
  A: -6	B: 96	C: 98	D: 1
O=C1CCCc2c1cc(C(=O)Nc1ccccc1)c(=O)n2-c1ccccc1
  A: -16	B: 100	C: 98	D: -2
O=C(Nc1ccc2c(c1)OCO2)C12CC3CC(CC(O)(C3)C1)C2
  A: 5	B: 105	C: 109	D: -8
Cc1ccc(C(=S)N2CCOCC2)cc1
  A: 1	B: 98	C: 100	D: 97*
Cc1ccn(CCC(=O)N(C)C(C)CCc2ccco2)n1 (stereo not given)
  A: 0	B: 99	C: 103	D: -8
O=C(O)c1cn(-c2ccc(F)cc2)c2cc(N3CCNCC3)c(F)cc2c1=O
  A: -4	B: 99	C: 100	D: 2
C=CCn1c(=S)sc2c(SCc3ccc(F)cc3)ncnc21
  A: -2	B: 99	C: 101	D: 12
CN(C)S(=O)(=O)n1cc(/C=C(\NC(=O)c2ccccc2)C(=O)NCc2ccco2)c2ccccc21
  A: -26	B: 104	C: 96	D: 9
Cn1c(SCC(=O)NC(=O)c2ccc(OC(F)F)cc2)nc2ccccc21
  A: -35	B: 107	C: 105	D: -3
CC1(C)CC(=O)c2cc(OCC(=O)NCCN3CCOCC3)ccc2O1
  A: 2	B: 101	C: 97	D: 46
CCOC(=O)C1CCN(C(=O)Cn2cccc2C(=O)c2ccccc2)CC1
  A: -28	B: 104	C: 102	D: 5
O=C(/C=C/c1ccccc1)N1CCC(C(=O)N2CCN(C3CCS(=O)(=O)C3)CC2)CC1 (stereo not given)
  A: 3	B: 99	C: 106	D: 0
CCOC(=O)c1oc2ccccc2c1CSc1nnc(-c2ccco2)o1
  A: -13	B: 109	C: 127	D: -1
CCC(C(=O)O)n1nnc(-c2ccc(OCc3ccccc3)c(OC)c2)n1 (stereo not given)
  A: -26	B: 103	C: 103	D: 3
C=CCNC(=S)Nc1cccc(NC(=O)CC(NCc2ccco2)C(=O)O)c1 (stereo not given)
  A: -24	B: 103	C: 109	D: 15
Cc1c(C#N)c(NC(=O)CSc2ccc(F)c(Cl)c2)n(Cc2ccco2)c1C
  A: -24	B: 107	C: 114	D: 11
O=c1sc2ccccc2n1CCc1ccccc1
  A: -37	B: 100	C: 105	D: -2
CC(C)NS(=O)(=O)c1ccc(CCC(=O)Nc2ccc3c(c2)OCCO3)cc1
  A: -23	B: 100	C: 102	D: 0
COc1cc2c(cc1OC)CN(CC(=O)Nc1ccc3c(c1)OC(F)(F)O3)CC2
  A: 1	B: 102	C: 100	D: -3
COc1ccc(Br)cc1CNC(=O)c1cc(-c2ccccc2)n(C)c1C
  A: -15	B: 101	C: 106	D: 13
Cc1cc(C)c2cccc(NC(=O)COc3ccc4oc5c(c4c3)CCCC5)c2n1
  A: -3	B: 102	C: 109	D: -3
CC(C)C(=O)NC1=NC2C(N=CN2C2CC(O)C(CO)O2)C(=O)N1 (stereo not given)
  A: 3	B: 109	C: 111	D: .
CC(=O)Oc1ccccc1-c1ccccc1
  A: -22	B: 98	C: 99	D: -26
CCOC(=O)c1ccc(NC(=O)C(CC)Sc2nc(N)cc(N)n2)cc1 (stereo not given)
  A: 27	B: 102	C: 103	D: 7
CCN(C(=O)CCN1C(=O)c2ccccc2C1=O)c1ccccc1
  A: -12	B: 100	C: 103	D: -12
O=C(O)C1Sc2[nH]c(=O)sc2C2c3ccc(O)cc3OC(=O)C12 (stereo not given)
  A: -9	B: 94	C: 109	D: 26
O=C(COc1ccccc1)Nc1cccc(C(F)(F)F)c1
  A: 12	B: 101	C: 102	D: -1
CC(C)CCCn1c(O)c(/C=C2\C=CC=N2)c(=O)[nH]c1=O
  A: -73	B: 104	C: 104	D: .
CC(C)(C)NC(=O)Nc1ccccc1SCCC#N
  A: -4	B: 101	C: 95	D: 5
CCOC(=O)/C(=N\O)c1c(C)nn(-c2ccc(F)cc2)c1C
  A: -17	B: 104	C: 109	D: 0
CN(C)CCN(Cc1ccco1)C(=O)c1c2c(nc3ccccc13)C(=O)N(C1CCCCC1)C2
  A: -6	B: 100	C: 100	D: 3
Cc1cc(C)c2cc(C(=O)Nc3ccccc3Cl)[nH]c2c1
  A: -7	B: 106	C: 118	D: -69
Cc1sc(NC(=O)c2ccco2)c(C2=CC(=O)N(c3ccccc3)C2=O)c1C
  A: -1	B: 105	C: 107	D: 6

3 structures out of the list, ordered by formula weight, smallest number first.
Screens by letter – A = Mtb MenB inh; B = Polio RdRp inh; C = Polio RdRp inh intensity; D = MbtI inh
CCOC(=O)/C(=N\O)c1c(C)nn(-c2ccc(F)cc2)c1C
  A: -17	B: 104	C: 109	D: 0
CCOC(=O)c1ccc(NC(=O)C(CC)Sc2nc(N)cc(N)n2)cc1 (stereo not given)
  A: 27	B: 102	C: 103	D: 7
Cc1sc(NC(=O)c2ccco2)c(C2=CC(=O)N(c3ccccc3)C2=O)c1C
  A: -1	B: 105	C: 107	D: 6

Random draw from the library; any-hit rate near 1.9%.
